Assay outcomes: PubChem BioAssay, several laboratories
MLL AF4-AF9 inh: inhibitors of human MLL-AF4/AF9 interaction. P42568. inhibition, % at 10 µM. AlphaScreen, biotin-AF4 peptide binding to FLAG-AF9. 350,000 tested, 0.47% active;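 active = every replicate reaching a set inhibition limit, whatever the replicate mean, cut at about 25% in these data; inconclusive = mean inhibition reaches that limit but some replicates miss it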;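 also: 0% = plate neutral control median and 100% = total signal loss; the record names both 10 and 1 µM as test concentration; the first replicate is given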
Target sequence (P42568 whole entry, looked up): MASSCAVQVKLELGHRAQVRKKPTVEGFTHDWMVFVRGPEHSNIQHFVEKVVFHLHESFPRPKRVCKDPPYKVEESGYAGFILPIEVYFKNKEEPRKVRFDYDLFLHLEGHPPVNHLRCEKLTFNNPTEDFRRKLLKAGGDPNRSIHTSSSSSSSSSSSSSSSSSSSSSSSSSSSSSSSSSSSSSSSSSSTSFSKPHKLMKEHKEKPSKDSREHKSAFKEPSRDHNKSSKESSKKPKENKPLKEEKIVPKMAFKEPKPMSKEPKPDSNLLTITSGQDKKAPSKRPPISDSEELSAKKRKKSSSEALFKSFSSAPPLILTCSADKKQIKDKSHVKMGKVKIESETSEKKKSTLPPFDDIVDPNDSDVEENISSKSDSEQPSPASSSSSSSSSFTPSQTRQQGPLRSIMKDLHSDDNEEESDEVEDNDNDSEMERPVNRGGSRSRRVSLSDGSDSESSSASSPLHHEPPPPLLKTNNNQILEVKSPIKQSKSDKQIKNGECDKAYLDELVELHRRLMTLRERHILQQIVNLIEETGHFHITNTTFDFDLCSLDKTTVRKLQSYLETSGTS
A1 inh: inhibitors of the anti-apoptotic protein A1, read as caspase activation; caspase activation, % (no concentration beside the values); 330,000 tested, 0.066% active; AID 2462; MEF A1-2A-BIM cells, Caspase-Glo 3/7 luminescence, 3 h; percent of clofoctol response, vehicle zero;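 active = over half of replicate activation scores above 10%, or exactly half above 10 with the replicate mean above 10; inconclusive = replicate mean below 10 yet half the replicates above 10; inactive = over half of replicates below 10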;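 also: wells of about 30 µL received 50 nL stock; many hits fall short of the cut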
Beta cell apopt: beta cell apoptosis inhibition; AID 435005; 300,000 tested, 0.8% active; INS-1E cytokine-induced death, ATP luminescence, 48 h; percent of positive-control rescue, neutral wells zero; protection from apoptosis, % (concentration not given with the values);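 active = all replicates at 75% or more, or half of them and the mean; inconclusive = half reach 75% but not the mean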;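 also: 0% = cytokine-treated negative control wells and 100% = positive control rescue; higher means more ATP so stronger rescue from cytokine killing; wells of about 40 µL received 100 nL stock; the first replicate is given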
Calb FLC: C. albicans growth modulation with fluconazole. growth inhibition, % (concentration not given with the values). 300,000 tested, 0.57% active. C. albicans CaCi-2 (fluconazole-resistant clinical isolate) + fluconazole, Alamar Blue growth, 48 h;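 active = most replicates above 75%; inconclusive = exactly half above 75%; inactive = most below 75%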;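 also: all wells also contain fluconazole at 8 µg/ml as a sub-toxic cotreatment; 0% = median of DMSO wells and 100% = median of geldanamycin control wells; wells of about 8 µL received 7.5 nL stock; the first replicate is given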
RanGTP-Imp inh: disruptors of Ran-importin-beta complex formation – biochemical, FRET, CFP-Ran, YFP-importin-beta, homogeneous, primary screen | 300,000 tested, 1.1% active | cell-free CFP-Ran/YFP-importin-beta FRET ratio | inhibition, % (no concentration beside the values);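 active = most replicates above 15%; inconclusive = exactly half above 15%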;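 also: 0% = DMSO wells and 100% = Ran loaded with GDP instead of GTP; wells of about 40 µL received 100 nL stock; the first replicate is given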
rRNA inh HTS: selective bacterial rRNA inhibition in E. coli; GFP signal change (wild-type ribosome), % (concentration not given with the values); 350,000 tested, 1.6% active; E. coli WT GFP vs humanized-ribosome RFP mutants, fluorescence, 24 h; stronger effect = lower value; DMSO median 0, no signal -100;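 active = significant combined selectivity score with lowered wild-type GFP, culture density cut under 30%, mutant RFP and density less affected; inactive = any of these conditions unmet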; also: one replicate is shown; some compounds called inactive have numbers as strong as hits
Vif A3G: inhibitors of Vif binding to APOBEC3G peptide, primary screen, biochemical, TR-FRET, GST-Vif 1-94, biotin-A3G peptide, dose response retest (AID 1117319). 260,000 tested, 0.57% active. TR-FRET GST-Vif / biotin-A3G peptide binding; higher % means a stronger effect; test concentration not given here; strong numbers were not always called active. inhibition, %; hits with a dose series show IC50 in µM;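 active = above the screen mean plus three standard deviations and confirmed in dose response; inconclusive = results disagree or hit not tested in dose response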;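 also: Vif residues 1-94 fused to GST binding biotinylated APOBEC3G peptide 110-148; 0% = full assay without inhibitor and 100% = GST in place of GST-Vif; retest series ran down from 100 µM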
T cruzi repl: blocks replication of Trypanosoma cruzi. T. cruzi beta-gal in NIH3T3, luminescence, 90 h. inhibition, % (concentration not given with the values). AID 1885. 300,000 tested, 1.4% active;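 active = mean inhibition across valid replicates above about 55%, limit read from the data; inconclusive = mean below that limit but half or more replicates reach it; inactive = mean below it, under half of replicates reach it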;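 also: signal also drops with host cell toxicity which is not excluded here; 0% = plate median of DMSO wells and 100% = zero luminescence signal; higher percent means less beta-gal luminescence so fewer parasites; stock transfer was 50 nL into about 50 µL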
rRNA inh HTS OD600: also measured in rRNA inh HTS; calls as there; OD600 change, %; measured here: OD600 growth;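 optical density of the mix in the first replicate; 0 = DMSO median and -100 = no signal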
rRNA inh HTS RFP: recorded beside rRNA inh HTS, whose call it bears; RFP signal change, %; measured here: RFP humanized mutant strains;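 first replicate; 0 = DMSO median and -100 = no signal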
Starred values were filed as active, the others as inactive; ? = inconclusive; · = not tested or not shown.

Each structure is followed by: MLL AF4-AF9 inh	A1 inh	Beta cell apopt	Calb FLC	RanGTP-Imp inh	rRNA inh HTS	rRNA inh HTS OD600	rRNA inh HTS RFP	Vif A3G	T cruzi repl
COc1ccc(C(=O)OCC(=O)Nc2cc(S(=O)(=O)N3CCOCC3)ccc2N2CCCC2)cc1
  3.5	0.1	-3	-1	0.3	-22	-12	13	4%	3
CCCC(=O)N(Cc1cc(=O)[nH]c2ccccc12)c1ccc(C)cc1
  -9.8	0.4	1	5	-3.5	5	7	0.2	0%	-1
CC(Sc1nnnn1-c1ccccc1)C(=O)Nc1ccc(N2CCN(C)CC2)cc1 (stereo unspecified)
  12	0.6	-1	-5	3.2	2	8	-2.2	·	8
Cc1nc(-c2cccc(C(F)(F)F)c2)sc1C(=O)O
  0.1	-1.2	-1	-17	0.0	-8	-17	-4.0	-9%	7
CCCCc1ccc(NC(=O)Nc2cc(C)nn2C)cc1
  ·	?	-8	-11	2.3	·	·	·	·	-7
COc1cc2c(C)nc(C)c(C#N)c2cc1OC
  ·	0.6	-2	2	-20	·	·	·	4%	-5
Cc1ccc(C)c(NC(=O)c2cc(S(=O)(=O)N3CCCCC3)c[nH]2)c1
  -2.7	-0.3	-2	-3	-1.6	3	3	-2.6	·	-9
CCc1ccc(C(=O)Nc2cc(S(=O)(=O)N3CCOCC3)ccc2N2CCOCC2)cc1
  -0.3	-1.1	6	·	·	4	-1	2.4	·	·
OCCC1CN(Cc2ccccc2-c2ccco2)CCN1Cc1ccccc1 (stereo unspecified)
  6.1	-0.1	-3	-20	6.0	0	-2	-6.6	15%	38
O=C(NCC(c1cccs1)N1CCOCC1)C1CCN(S(=O)(=O)c2cccc(C(F)(F)F)c2)CC1 (stereo unspecified)
  2.7	0.9	-5	5	-3.9	-2	-2	0.0	8%	2
CCN(CC)c1ccc(NC(=O)CSc2nc3ccccc3c(=O)[nH]2)cc1
  ·	-0.6	1	-6	-12	·	·	·	5%	5
N#CC1=C(SCC(=O)Nc2nccs2)NC(=O)CC1c1ccccc1 (stereo unspecified)
  -15	0.1	-10	5	1.0	-28*	-7.2*	-5.9*	-6%	-13
CCCN(C1CCS(=O)(=O)C1)S(=O)(=O)c1cc(OC)ccc1OC (stereo unspecified)
  -1.2	1.5	-4	·	·	14	16	1.9	-11%	·
COc1ccc(CCNC(=O)c2cc(S(=O)(=O)N(C)c3ccccc3)ccc2Cl)cc1
  ·	0.2	2	14	-2.0	·	·	·	·	-5
CCN(CC(=O)NCc1ccc(Cl)cc1)C(=O)c1oc2ccccc2c1C
  2.9	-0.6	-11	6	-2.2	-3	-11	2.4	·	13
O=C1SC(SCc2ccccc2)=N/C1=C\c1ccco1
  ·	-0.3	-1	-20	0.4	·	·	·	?	-19
Cc1ccc(NCc2ccccc2O)c(C)c1
  3.2	2.3	-4	-24	-3.2	-18	-16	0.1	-6%	-16
CCOC(=O)CCN(c1ccccc1)S(=O)(=O)c1ccc(-c2ccc(=O)[nH]n2)s1
  -28	1.6	0	-10	-2.1	14	13	7.2	·	2
COc1ncc(-c2ccc3c(c2)S(=O)(=O)c2cccc(C(=O)O)c2C3=O)cn1
  -4.9	-0.1	-1	·	·	2	12	-10	·	·
COc1ccccc1C(=O)NC(=S)/C=C1/N(C)c2ccccc2C1(C)C
  14	1.4	66	2	-3.8	-29	-55	45	9%	47
CC(=O)Nc1ccc(S(=O)(=O)Nc2ccc(N3CCOCC3)cc2)cc1
  ·	0.7	-2	10	-2.1	·	·	·	0%	-3
COc1ccc(N(C(=O)c2ccc(Br)o2)C2C=CS(=O)(=O)C2)cc1 (stereo unspecified)
  -54	0.6	1	1	-0.4	13	2	-1.0	4%	-4
COc1ccc(NC(=O)CSc2nnc3ccc(-c4cccnc4)nn23)c(OC)c1
  3.4	-0.2	2	3	2.3	6	5	1.1	5%	-2
CCOC(=O)/C(C#N)=C/c1c(N2CCN(Cc3ccc4c(c3)OCO4)CC2)nc2c(C)cccn2c1=O
  39*	-0.7	8	35	-36	7	15	51	-1%	31
Cc1nn(-c2ccccn2)c(N)c1N=O
  7.1	-0.5	-7	17	5.5	·	·	·	0%	-24
Cc1ccccc1C(=O)NC(CC(C)C)C(=O)OCc1cc(=O)n2cc(Br)ccc2n1 (stereo unspecified)
  ·	-4.8	-4	5	0.1	·	·	·	-19%	-5
Cc1ccc(C(=O)OC/C(O)=C(\C#N)c2nc3ccccc3[nH]2)cc1S(=O)(=O)N1CCOCC1
  ·	0.3	5	-3	-1.1	·	·	·	·	-10
Clc1ccccc1CSC1=NCCCN1
  ·	1.7	-3	1	?	·	·	·	4%	4
CCC1CCCCN1C(=S)NC(=O)c1ccc(F)c(S(=O)(=O)N2CCOCC2)c1 (stereo unspecified)
  -3.7	-0.2	1	3	-3.2	·	·	·	5%	5
CC(=O)Nc1ccc(NC(=O)Cc2ccc(-c3ccccc3)cc2)cc1
  1.6	0.2	-2	3	?	7	12	2.9	·	-14
Cc1ccc(S(=O)(=O)NC2=NCN(Cc3cccnc3)CN2)cc1
  ·	0.6	-5	-11	-2.7	0	5	-0.4	15%	-14
Cc1ccccc1Cn1cnc2c(oc3ccccc32)c1=O
  0.8	-0.3	3	-3	6.7	9	10	0.0	-5%	-3
COc1cccc(CNC(=O)Cc2ccc(S(=O)(=O)N3CCOCC3)s2)c1
  0.1	0.7	·	16	2.3	6	8	-0.5	9%	0
Cc1cccc(NS(=O)(=O)c2cccc(C(=O)NCC(c3ccco3)N3CCCCC3)c2)c1 (stereo unspecified)
  0.4	0.5	4	-6	-0.8	-4	-7	33	·	-13
C/C(CCc1ccc2c(c1)OCO2)=N\NC(=O)c1ccccc1
  -0.4	-0.6	-6	-3	-2.7	10	11	3.8	·	-11
CN(C)CC(CCCCC(CN(C)C)C(=O)c1ccccc1)C(=O)c1ccccc1 (stereo unspecified)
  12	·	·	-29	1.8	16	-3	-1.0	-6%	21
CON(C)C(=O)CCN(Cc1ccccc1)C(=O)OC(C)(C)C
  2.6	-0.3	1	·	·	8	15	2.1	·	·
Cc1c(C(=O)Nc2ccncc2)oc2c1C(=O)CC(C)(C)C2
  -2.1	-0.1	3	11	1.5	-19	-17	-5.7	75%	-22
Cc1cc(C(=O)NN=C(CCC(=O)O)c2cccs2)c(C)o1
  -9.9	0.2	-2	·	·	1	-1	-5.1	·	·
O=C(C[n+]1ccccc1)Nc1ccc(Oc2ccccc2)cc1
  2.2	0.4	1	22	-1.0	13	9	2.1	·	6
Cc1oc(-c2ccccc2)nc1CS(=O)CC(=O)NC1CCCCCC1 (stereo unspecified)
  -13	0.4	10	6	2.3	-9	-12	3.0	·	-16
Cc1cc(N2CCN(C)CC2)nc2ccc(NC(=O)CCC(=O)N3CCN(c4ccc([N+](=O)[O-])cc4)CC3)cc12
  14	-0.2	14	-2	-7.6	-20	-38	0.5	·	23
CC1(C)Cc2cccc(OCC(=O)N3CCN(c4ccc(F)cc4)CC3)c2O1
  1.7	-0.1	·	-3	1.9	-15	-20	-1.3	-2%	-8
CCN(CC(=O)Nc1ccc(C(=O)Nc2ccc(OC)cc2)cc1)Cc1nc2ccccc2c(=O)[nH]1
  1.8	1.2	8	-11	6.0	6	-1	-3.5	11%	-5
Cc1noc(C)c1C(=O)Nc1nc2ccc(Cl)cc2s1
  -0.6	-7.5	33	15	-2.0	·	·	·	1%	2
CCCCOC(=O)c1ccc(NC(=O)/C=C/c2cccs2)cc1
  ·	-0.1	5	19	2.3	·	·	·	-4%	-9
CCOc1ccc(S(=O)(=O)N2CCN(S(=O)(=O)c3ccc(C)c(C)c3)CC2)cc1
  0.4	·	·	8	5.3	16	14	0.6	7%	-3
O=C(COC(=O)c1ccccc1Nc1ccccc1F)c1ccccc1
  5.4	0.1	-8	-5	2.2	-8	4	24	-1%	-10
CCOc1ccc(NC(=O)COc2ccc(C(=O)NC3CCCc4ccccc43)cc2OC)cc1 (stereo unspecified)
  -3.2	1.2	15	-2	0.8	6	12	-5.8	·	3
CC(=O)C1=C(O)C(=O)N(c2ccc(S(N)(=O)=O)cc2)C1c1ccccc1F (stereo unspecified)
  ·	0.7	-4	1	-0.6	·	·	·	-2%	4
COc1ccc(C(=O)C2CCCN(Cc3cnc(N4CCCC4)s3)C2)cc1OC (stereo unspecified)
  -0.2	1.9	-1	-21	1.8	21	6	4.7	-4%	67*
Cc1cc(C)n2nc(SCC(=O)NC3CCCC(C)C3C)nc2n1 (stereo unspecified)
  -11	-0.5	-4	3	3.2	5	10	2.7	·	-6

In the list so far, 8 contain two or more sulfur atoms:
Each structure is followed by: MLL AF4-AF9 inh	A1 inh	Beta cell apopt	Calb FLC	RanGTP-Imp inh	rRNA inh HTS	rRNA inh HTS OD600	rRNA inh HTS RFP	Vif A3G	T cruzi repl
O=C(NCC(c1cccs1)N1CCOCC1)C1CCN(S(=O)(=O)c2cccc(C(F)(F)F)c2)CC1 (stereo unspecified)
  2.7	0.9	-5	5	-3.9	-2	-2	0.0	8%	2
N#CC1=C(SCC(=O)Nc2nccs2)NC(=O)CC1c1ccccc1 (stereo unspecified)
  -15	0.1	-10	5	1.0	-28*	-7.2*	-5.9*	-6%	-13
CCCN(C1CCS(=O)(=O)C1)S(=O)(=O)c1cc(OC)ccc1OC (stereo unspecified)
  -1.2	1.5	-4	·	·	14	16	1.9	-11%	·
O=C1SC(SCc2ccccc2)=N/C1=C\c1ccco1
  ·	-0.3	-1	-20	0.4	·	·	·	?	-19
CCOC(=O)CCN(c1ccccc1)S(=O)(=O)c1ccc(-c2ccc(=O)[nH]n2)s1
  -28	1.6	0	-10	-2.1	14	13	7.2	·	2
CCC1CCCCN1C(=S)NC(=O)c1ccc(F)c(S(=O)(=O)N2CCOCC2)c1 (stereo unspecified)
  -3.7	-0.2	1	3	-3.2	·	·	·	5%	5
COc1cccc(CNC(=O)Cc2ccc(S(=O)(=O)N3CCOCC3)s2)c1
  0.1	0.7	·	16	2.3	6	8	-0.5	9%	0
CCOc1ccc(S(=O)(=O)N2CCN(S(=O)(=O)c3ccc(C)c(C)c3)CC2)cc1
  0.4	·	·	8	5.3	16	14	0.6	7%	-3

These rows are one share of the data; count on the stated rates, not on these rows.
